# Bead autofluor: compound fluorescence in toxin protease inhibitor counterscreen; compound autofluorescence counterscreen, microsphere flow cytometry; hits give high values; fluorescence intensity (no concentration beside the values); hit rate 3.1% among 360,000; AID 624483;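 active means at least 3 SD above the mean of all compounds, about 16000 in these data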;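 further: 100 nL of 1 mM stock went into each well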
# RN4220 kill: growth inhibition of S. aureus RN4220, primary screen, OD600. inhibition, % (test concentration not listed). hit rate 0.33% among 330,000. 16 h. AID 1259311, 2017;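 active means z-score of -3 or lower and OD600 up to 0.18 on both plates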;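 further: plate controls were untreated cells for no effect and reference antibiotic for full effect; stock transfer was 100 nL into about 80 µL; one replicate is shown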
# PrP 5UTR inh: inhibition of PrP 5' UTR reporter expression | inhibition, % (test concentration not listed) | AID 488862, 2010 | hit rate 0.35% among 340,000 | cell-based PrP 5' UTR mRNA reporter, plate reader;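 active means every replicate at 50% or more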;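 further: 0 = median of the neutral control wells; tested in H4 reporter cells; numbers are from one replicate; inactives centre near -14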
# Mtb hypoxia rep: PubChem AID 1159583; M. tuberculosis hypoxia-regulated fluorescent reporter, fluorescence; fluorescence inhibition, % (concentration not given with the values); hit rate 0.1% among 300,000;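 active means 35 to 45% if threefold the growth effect, above 45% if 1.5-fold the growth effect; inactive means the rest, general growth blockers included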;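 further: wells of about 50 µL received 100 nL stock; 0% = vehicle wells and 100% = reference inhibitor wells; whole bacteria with a GFP reporter of the hypoxia response; strong numbers were not always called active; many hits fall short of the cut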
# ugtP null kill: growth inhibition of ugtP-null S. aureus, primary screen, RN4220 ugtP deletion, OD600 | AID 1259309, 2017 | 16 h; some inactives read as strong as hits | hit rate 0.54% among 330,000 | growth inhibition, % (concentration not given with the values);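 active means z-score under -3 and OD600 up to 0.15 on both plates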;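 further: plate controls were untreated wells for no effect and antibiotic for full effect; wells of about 80 µL received 100 nL stock; the first replicate is given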
# BJeLR viability: MLPCN primary cell-based screen for lethality selective to Ras in HRASV12 cells | BJeLR (HRASV12) viability, CellTiter-Glo ATP luminescence, 48 h; reference of the scale not given here | AID 1554, 2009 | inhibition, % (no concentration beside the values) | hit rate 0.17% among 300,000;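 active means replicate mean above 50%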;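 further: 50 nL library stock added to about 25 µL; numbers are from one replicate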
# Mtb hypoxia rep growth: second read-out of Mtb hypoxia rep, no call of its own (marks repeat the call); growth inhibition, %; measured here: M. tuberculosis growth (absorbance);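 0% = vehicle and 100% = reference antibiotic; read after six days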
# * hit, by the source's call; · = not tested or not shown.
smiles	Mtb hypoxia rep growth	Bead autofluor	ugtP null kill	BJeLR viability	Mtb hypoxia rep	RN4220 kill	PrP 5UTR inh
CSCC[C@H](NS(=O)(=O)c1ccc(C)cc1)C(=O)N1CCC(C(=O)N[C@H](C(=O)O)c2ccccc2)CC1	·	5590	9	-7	·	1.4	-28
CC(=O)NN(O)C1N(C)C(=O)N(Cc2ccccc2)C1(C)C (configuration not stated)	14	5648	7	5	15	4.6	-25
CC(C)c1ccccc1NC(=O)CCc1nc2ccccc2s1	-3	2460	1	-3	-4	2.5	-18
COc1ccccc1C(=O)NCc1nnc(SCC(=O)Nc2nccs2)n1C	-1	3978	2	-14	3	1.3	-13
COCCn1c(SCC(=O)Nc2cccc(F)c2)nc2c(c1=O)SCC2	9	5537	4	-6	6	1.0	-29
Cc1ccc(S(=O)(=O)c2c(O)c3ccc(C(=O)O)cc3[nH]c2=O)cc1	-3	3703	2	10	-2	4.6	-13
Cc1[nH]n(-c2ccccc2)c(=O)c1C(=O)c1ccc([N+](=O)[O-])cc1	-3	5065	12	-2	13	17	-26
Cc1ccccc1C(=O)NNC(=S)NC(=O)c1ccccc1	14	2489	8	-4	2	33	-3
CCC(=NN=C(CC)c1ccccc1N)c1ccccc1N	-5	·	11	·	14	-1.6	·
COc1ccc(S(=O)(=O)N(C)C[C@H]2Oc3c(NC(=O)Nc4c(C)noc4C)cccc3C(=O)N([C@@H](C)CO)C[C@H]2C)cc1	2	3797	27	·	1	4.5	-16
Cc1ccc(NC(=O)c2cc(S(=O)(=O)N3CCCCC3)ccc2N2CCOCC2)cc1S(=O)(=O)N(C)C	62*	3490	0	·	26*	5.0	-13
O=C(CSc1nnc(NC(=O)c2ccc3c(c2)OCO3)s1)NCc1ccco1	7	3203	2	·	-5	4.9	9
COc1ccc(CCNS(=O)(=O)CCNC(=O)c2ccccc2)cc1	-1	6979	1	1	7	0.5	-8
Cc1ccc(NC(=O)CCc2c(C)nn(-c3ccc(N4CCCCC4)nn3)c2C)cc1	16	5317	-2	-9	2	-4.6	-57
O=Cc1cn(Cc2cccc([N+](=O)[O-])c2)c2ccccc12	8	2794	-9	-23	15	-1.0	71*
COC(=O)c1cccc(C#CC(NP(=O)(c2ccccc2)c2ccccc2)c2ccccc2)c1 (configuration not stated)	8	3481	-5	8	1	2.9	-20
O=C(O)c1ccc(-c2ccccc2Cl)o1	·	3795	-10	-1	·	0.3	-9
CC(CNc1nc2ccccc2n2cnnc12)c1ccccc1 (configuration not stated)	-7	3940	-5	-1	8	4.5	16
Cc1cc(C(C)(C)C)oc1C(=O)N(CC(=O)NC1CCCC1)c1ccc(F)cc1	1	9520	-18	12	-4	-9.7	-22
O=[N+]([O-])c1ccc(N2CCN(c3ccc([N+](=O)[O-])cc3CO)CC2)c(CO)c1	4	3480	1	14	-2	1.5	-10

# The listing continues.
smiles	Mtb hypoxia rep growth	Bead autofluor	ugtP null kill	BJeLR viability	Mtb hypoxia rep	RN4220 kill	PrP 5UTR inh
CN(C)CCCNC(=O)C[C@H]1C[C@H](C(=O)N2CCOCC2)[C@@]2(C)c3[nH]c4cc(CCC(=O)N(C)C)ccc4c3CCN2C1=O	-2	3009	-5	·	-5	-0.9	-2
C/C(=N\N=C1\NC(=O)C(CC(=O)Nc2ccc(Cl)cc2)S1)c1ccco1 (configuration not stated)	·	2539	·	-6	·	·	-14
Cc1ccc(C(=O)CSc2nnc(-c3ccccc3)n2-c2ccccc2)o1	-1	20254*	3	-4	7	3.3	-3
Cc1cc(/C=N/Nc2ccc([N+](=O)[O-])cn2)c(C)n1-c1ccc(C(=O)O)cc1	·	2720	·	-14	·	·	-2
COC(=O)c1cccc(C23CC4(C2)[C@H](CN(C)[C@@H]4c2ccccc2)C3c2ccc(C(F)(F)F)cc2)c1 (some centres not stated)	·	4483	·	-2	·	·	-29
CC1CCN(S(=O)(=O)c2cccc(S(=O)(=O)N3CCCC3)c2)CC1	-2	2990	-1	3	10	4.6	-17
Cc1ccccc1N=C1SCCN1C(=O)CN1C(=O)NC2(CCCC2)C1=O	3	6719	-4	-4	-13	-2.1	-15
COc1ccc(CN2CC(C(=O)NCCc3ccc(C)cc3)CC2=O)cc1 (configuration not stated)	5	20337*	5	6	6	-0.2	-14
CCN(CC)c1ncnc2c1[nH]c1ccccc12	-2	2874	-19	-1	-6	-8.0	-10
COc1ccc(/C=C/C(=O)NCc2c(C)nn(C)c2C)cc1COc1ccc(Br)cc1	2	8036	37	-14	-5	0.8	·
CC(=O)NC(CCS(C)(=O)=O)C(=O)Nc1nc(C)cs1 (configuration not stated)	-8	8847	2	0	1	0.2	-29
O=C(O)c1ccccc1C(=O)c1ccc(Br)s1	6	4559	-2	0	3	7.2	-18
O=C(Nc1ccc(N2C(=O)C3C4C=CC(C4)C3C2=O)cc1)Nc1cccnc1 (configuration not stated)	5	2695	-3	2	-9	12	1
O=C(CSc1n[nH]c(=O)n1C1CC1)c1ccc(F)cc1	12	3957	8	6	10	5.1	·
CCCCn1c(N)c(N(CCOC)C(=O)c2cc(S(=O)(=O)N3CCCCC3)ccc2C)c(=O)[nH]c1=O	15	4855	13	3	7	3.7	-22
CCOc1cc(CNCc2cccs2)ccc1OCC(=O)NC(C)(C)C	1	2403	1	5	9	5.1	-11
O=C(COC(=O)c1ccc(F)cc1)Nc1cc(S(=O)(=O)N2CCOCC2)ccc1N1CCCC1	-2	4649	4	-4	-5	3.2	2
COc1ccc(CNC(=O)Cc2ccc(-c3ccccc3)cc2)cc1OC	9	3816	-1	0	1	-1.3	-7
CC1(CCc2ccccc2)NC(=S)N(c2ccc(Cl)cc2)N1 (configuration not stated)	-2	1959	1	-4	5	11	15
O=C(O)c1ccccc1COc1ccccc1Cl	13	9442	-2	-3	5	9.9	-36

# 5 entries from above in a different format:
# Below each SMILES – Mtb hypoxia rep growth, Bead autofluor, ugtP null kill, BJeLR viability, Mtb hypoxia rep, RN4220 kill, PrP 5UTR inh
> O=C(Nc1ccc(N2C(=O)C3C4C=CC(C4)C3C2=O)cc1)Nc1cccnc1 (configuration not stated)
  5, 2695, -3, 2, -9, 12, 1
> COc1ccc(CNC(=O)Cc2ccc(-c3ccccc3)cc2)cc1OC
  9, 3816, -1, 0, 1, -1.3, -7
> CCOc1cc(CNCc2cccs2)ccc1OCC(=O)NC(C)(C)C
  1, 2403, 1, 5, 9, 5.1, -11
> O=C(O)c1ccccc1COc1ccccc1Cl
  13, 9442, -2, -3, 5, 9.9, -36
> O=C(CSc1n[nH]c(=O)n1C1CC1)c1ccc(F)cc1
  12, 3957, 8, 6, 10, 5.1, ·

# The list goes on.
smiles	Mtb hypoxia rep growth	Bead autofluor	ugtP null kill	BJeLR viability	Mtb hypoxia rep	RN4220 kill	PrP 5UTR inh
CCC1SC2=NC(C)=C(C(=O)OC)C(c3ccc(C(=O)OC)cc3)N2C1=O (configuration not stated)	·	4573	-2	1	·	-0.1	-7
COc1ccc(Br)cc1/C=C/C(=O)OCC(=O)NCCc1ccc(S(N)(=O)=O)cc1	1	2898	-2	·	-7	2.0	-5
COc1ccc(CC2CN3C(=NCC3C(C)C)N2CC(C)NC(=O)c2ccc(C)c(Br)c2)cc1 (configuration not stated)	-1	·	5	·	-22	1.7	·
COc1cc(C2NC(=O)CCC2[N+](=O)[O-])cc(Br)c1OC (configuration not stated)	2	3616	5	-14	5	2.1	-20
CCOC(=O)c1c(NC(=O)c2cccs2)sc2c1CCN(C(=O)OCC)C2	12	3552	6	-2	9	11	-8
COc1ccc(CNCC(O)COc2ccc(C)cc2[N+](=O)[O-])cc1 (configuration not stated)	-8	·	-2	21	0	-0.5	-2
Cc1cccc(-n2c(-c3csc(C(C)C)c3)n[nH]c2=S)c1	4	20031*	16	5	-3	3.3	11
COc1ccc2c(CC(=O)NC3CCCc4ccccc43)coc2c1 (configuration not stated)	10	2322	5	-6	10	6.8	-14
CC1(C)Oc2nc3ccccc3n2/C1=C\C#N	8	2867	-6	0	2	-9.7	-1
O=C(CN1CCOCC1)c1ccc(Br)cc1	5	3605	15	-8	3	-0.3	-5
Cc1ccc(/C=C(\C#N)c2nn(-c3ccccc3)c(N)c2C#N)cc1	7	2231	-8	3	15	-0.6	11
Cc1cccc(CCNC(=O)CCCOc2cc(=O)n(C)c3ccccc23)c1	13	2229	0	-2	-12	1.8	-28
Fc1cc(F)c(C2SCCN2C(=S)Nc2cccc(C(F)(F)F)c2)c(F)c1 (configuration not stated)	-7	3980	-16	8	7	1.0	-7
O=C(NCc1cccnc1)c1cccc(OC2CCN(Cc3ccc(CO)o3)CC2)c1	-28	·	-9	2	7	-0.4	-1
Cc1cccc(/C(N)=N/OC(=O)c2ccc3c(c2)OCO3)c1	9	2459	0	-28	-11	3.3	-127
COc1cc(CNCCC2CCOC(C)(C)C2)ccc1O (configuration not stated)	·	4284	2	-1	·	3.3	-5
O=C(CN1C(=O)NC(Cc2c[nH]c3ccccc23)C1=O)NC1CC1 (configuration not stated)	6	4257	2	-3	15	6.7	48
CC(=O)N1c2ccc(S(=O)(=O)NCCC(=O)NC3CCC(C)CC3)cc2CC1C (configuration not stated)	2	5428	8	-12	4	1.5	-6
CCOCCCNC(=O)CN1CCN(S(=O)(=O)c2ccc3c(c2)CCC3)CC1	7	7825	5	·	3	6.7	-12
CCCNC(=O)C1CCN(S(=O)(=O)c2c(C)noc2/C=C\c2ccc(OC)cc2)CC1	-1	5268	7	-3	2	-11	-13

# Single records (already shown). Screens in order: Mtb hypoxia rep growth	Bead autofluor	ugtP null kill	BJeLR viability	Mtb hypoxia rep	RN4220 kill	PrP 5UTR inh
# Entry for `COc1ccc(CC2CN3C(=NCC3C(C)C)N2CC(C)NC(=O)c2ccc(C)c(Br)c2)cc1` (configuration not stated) = -1	·	5	·	-22	1.7	·
# Entry for `Cc1ccc(/C=C(\C#N)c2nn(-c3ccccc3)c(N)c2C#N)cc1` = 7	2231	-8	3	15	-0.6	11

# Next records
smiles	Mtb hypoxia rep growth	Bead autofluor	ugtP null kill	BJeLR viability	Mtb hypoxia rep	RN4220 kill	PrP 5UTR inh
O=[N+]([O-])c1ccc(C=NNS(=O)(=O)c2ccc(Cl)cc2)o1	-1	·	38	·	13	13	·
CCN(CC(=O)Nc1ccccc1C(F)(F)F)C(=O)c1cccc(N2C(=O)CCC2=O)c1	8	3749	0	-4	1	-1.0	-25
COc1ccc2nc(NC(=O)CC3Oc4ccccc4NC3=O)sc2c1 (configuration not stated)	3	4981	4	-7	-5	2.6	-21
O=C(O)CSc1nnc(CNc2ccc(F)cc2)n1-c1ccccc1	12	·	0	-2	17	0.0	-14
c1ccc(CN2OCC3Cn4c(nc5ccccc54)C32)cc1 (configuration not stated)	9	4053	5	0	1	8.0	7
O=C1CCC(C(=O)Nc2ccccc2N2CCCC2)=NN1	-2	4190	1	7	3	2.4	-19
CCn1ncc(/C=N\NC(=O)COc2cc(C)cc(C)c2)c1C	·	11112	·	-3	·	·	-28
O=S(=O)(N/N=C\c1c(F)cccc1Cl)c1ccc(Cl)cc1	·	4320	·	4	·	·	-11
COc1ccc(C=Nc2nc3ccccc3n2C)cc1OC	6	·	9	·	8	4.4	·
CC(=O)Nc1ccc(NC(C)=O)c(NC2OCC(O)C(O)C2O)c1 (configuration not stated)	6	·	2	2	2	3.5	-22
COc1ccccc1CNC(=O)C1CCCN(S(C)(=O)=O)C1 (configuration not stated)	13	12804	1	-4	10	6.3	-9
O=C(COC(=O)c1ccccn1)NCc1ccccc1Cl	3	6893	7	-8	7	4.3	1
CCCS(=O)(=O)c1c(S(=O)(=O)CCC)c2c(N)cccn2c1C(=O)c1ccc(F)cc1	·	4647	2	14	·	-4.0	-5
Cc1noc(C)c1S(=O)(=O)N1CCC(C(=O)N2CCN(C(=O)c3ccco3)CC2)CC1	·	4304	4	-2	·	0.3	-6
CCN(CC)S(=O)(=O)c1ccc(N2CCN(S(=O)(=O)c3ccc4c(c3)OCCO4)CC2)nc1	3	2468	11	4	2	-1.9	-4
O=C(Cc1ccc(NC(=O)C2CCN(C(=O)c3ccccc3)CC2)cc1)Nc1ccc(C(=O)N2CCOCC2)cc1	4	3002	-2	·	-4	3.8	-19
CCOC(=O)C1=C(COC(=O)C(C)(C)Oc2ccc(Cl)cc2)NC(=O)NC1C (configuration not stated)	2	3677	5	·	3	6.9	13
COc1ccc(-c2cn3c(C)c(C(=O)N4CCc5ccccc5C4)sc3n2)cc1	15	4349	-2	-11	-12	24	-11
Cc1c(NC(=S)NC(=O)CCc2ccccc2)c(=O)n(-c2ccccc2)n1C	6	4317	23	-5	1	10	-24
CC(C)c1ccc(CSc2ccc(S(=O)(=O)N3CCOCC3)cn2)cc1	2	3726	14	·	13	6.0	-15

# From PubChem BioAssay
